GLA inh pH 4.5: alpha-galactosidase A (human) inhibition, pH 4.5; P06280; purified enzyme, 4-MU-alpha-Gal fluorescence, pH 4.5; activity change, negative = inhibition, % at 105 µM; 230,000 tested, under 10 active; inconclusive = small, poorly fitted or top-dose-only inhibition, or a rising curve; inactive = flat fitted curve, though single readings scatter; no compound was filed as active;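 further: 0% = full activity with enzyme and -100% = basal without enzyme; dose as in the result columns while the protocol names 77 µM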
Target sequence (P06280 whole entry, looked up): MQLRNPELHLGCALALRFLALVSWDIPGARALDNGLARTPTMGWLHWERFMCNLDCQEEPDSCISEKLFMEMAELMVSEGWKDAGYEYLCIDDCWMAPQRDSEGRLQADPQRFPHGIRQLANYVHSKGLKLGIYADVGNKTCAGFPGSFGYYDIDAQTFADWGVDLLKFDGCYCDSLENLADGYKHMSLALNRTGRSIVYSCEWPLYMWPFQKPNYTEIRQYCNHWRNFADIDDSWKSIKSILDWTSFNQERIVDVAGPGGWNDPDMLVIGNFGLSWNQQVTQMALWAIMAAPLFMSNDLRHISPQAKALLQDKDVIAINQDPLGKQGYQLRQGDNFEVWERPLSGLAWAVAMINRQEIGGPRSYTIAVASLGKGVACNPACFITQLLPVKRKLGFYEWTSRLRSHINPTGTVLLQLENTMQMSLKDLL
miR-21 FLuc: raises the signal of a miR-21 reporter | HeLa miR-21 FLuc reporter, luciferase, 48 h | 340,000 tested, under 10 active | Potency, µM (highest dose often 38.3 µM), inactives show at the top dose reporter change, positive = more light | AID 2288; active = well fitted rising curve with a large enough effect; inconclusive = small, poorly fitted or top-dose-only effect; inactive = no such curve, though single readings can be large or run the other way;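 further: % of control where 0% means no effect; miR-21 action dims this reporter so a rising signal means less miR-21 action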
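Using DMEM plus 10% FBS, HeLa miR-21-FLuc cells are incubated with test compounds (final up to about 40uM) for 48 hours; firefly luciferase signal is then imaged following reagent-mediated lysis.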
Rango release inh: inhibition of RanGTP-driven Rango-importin beta dissociation; O95149+P62826; Biochemical FRET Rango-importin beta, RanGTP-induced dissociation; Potency, µM (top dose mostly 46.1 µM), without a hit: top-dose activity change, negative = inhibition; actives 0.071% (n = 340,000); active means falling FRET ratio curve, often poorly fitted, with flat reads before Ran was added; inconclusive means other falling curves, or compound fluorescence or quenching; inactive means flat or rising ratio curve;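 further: potency means the concentration at half of the fitted maximal effect; % of control where 0% means no effect; nearly all actives have a fitted effect of over 45% in size; -100% = wells without RanGTP and RCC1; the record marks most hits as doubtful in a second field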
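Rango/importin beta premix (0.1/0.25 uM final), PBS + 1 mM DTT + 0.02% Tween-20 + 0.1% BSA; cpd 5 min RT; FRET pre-read; + RanGTP-RCC1 (0.6 uM Ran, 2 mM GTP, 0.2 uM RCC1); 45 min RT; FRET post-read, ex 430, em 486/530 nm.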
Rango complex inh: inhibitors of Rango-importin beta complex formation; Q14974; Rango CFP/YFP FRET sensor + importin beta, 45 min; Potency, µM (series often up to 92.2 µM), inactives show at the top dose inhibition of complex formation; actives 0.031% (n = 340,000); AID 540263; active = rising FRET ratio curve, often small or poorly fitted; inconclusive = mostly compound fluorescence or quenching in the first reads; inactive = flat curves in all reads;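 further: potency means the concentration at half of the fitted maximal effect; 0% = DMSO wells and 100% = buffer wells lacking importin beta; nearly all actives have a fitted effect of over 15% in size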
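FRET biosensor (snurportin 1 IBB flanked by EYFP and cerulean), 50 nM, with compound 5 min, then 0.125 microM importin beta in PBS, 1 mM DTT, 0.02% Tween-20, 0.1% BSA. CFP/YFP ratio read after 45 min at room temperature; pre-read flags interference.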
* = called active by the depositor; ? = inconclusive; . = no result given; & = joins results of further samples. These rows are one share of the data; rates above refer to the full screens.

SMILES	GLA inh pH 4.5	miR-21 FLuc	Rango release inh	Rango complex inh
Cc1cc(C)c2c(=O)[nH]c(SCC(=O)NCCc3ccccc3)nc2n1	-1	-1%	-5%	0.3%
COc1ccc(CC(=O)NCCC2=CCCCC2)cc1	-8	-21%	10%	-5.7%
Cc1ccsc1-c1nc(CN2C[C@@H](C)O[C@@H](C)C2)c(C)o1	3	-3%	-13%	3.2%
O=C(CSc1cc(Cl)ccc1Cl)NC1CCCC1	.	-7%	-5%	0.6%
CSc1nc2sc3c(c2c(=O)n1C1CCCCC1)CCN(C)C3	1	-5%	16%	0.2%
Cc1ccc(CCCOC(=O)C[N+]2(C)CCCC2)cc1	1	-3%	18%	-1.8%
Cc1oc(C(C)(C)C)cc1C(=O)Nc1ccc2c(c1)OCCO2	-3	-23%	-14%	3.6%
CCOc1ccc(C(=O)CSc2nnc(N)s2)cc1	3	-39%	10%	-0.2%
COc1cccc(CN(CC(=O)NCC2CCCO2)C(=O)CCC(=O)Nc2cc(C)on2)c1 (stereo unspecified)	5	-7%	3%	-1.1%
Cc1nn(C)cc1-c1n[nH]c(=S)n1-c1ccc(F)cc1	1	1%	7%	1.2%
COC(=O)N/N=C\c1ccc(-c2cc(Cl)c(Cl)cc2Cl)o1	4	-5%	-7%	0.1%
COc1ccc(Cc2nnc(SCc3c(C)noc3C)n2C2CCCCC2)cc1OC	10	-36%	3%	-0.5%
Cc1sc2nc(CN3CCOCC3)nc(NS(=O)(=O)c3ccccc3)c2c1C	1	-2%	-5%	-3.0%
Cc1ccc(S(=O)(=O)C2(C(=O)O)CCCC2)cc1C	4	-1%	0%	-3.0%
COC(=O)c1ccc(COC(=O)c2ccc(S(=O)(=O)N3CCC(C)CC3)cc2)o1	12	-3%	6%	-1.2%
O=C(CN1CCN(C(=O)c2ccccc2)CC1)Nc1ccccc1	.	1%	-8%	-1.4%
CC(C)C(=O)Nc1nc(-c2ccc(S(=O)(=O)N3CCOCC3)cc2)cs1	.	2%	11%	-1.1%
CC(C)c1nc(CNC(=O)c2ccc(OC3CCN(Cc4ccccn4)CC3)cc2)cs1	.	11%	13%	-1.7%
CCC1=C(OC(=O)N(CC)CC)N2C(=O)OC(=NCCOC)[C@]2(Cc2ccccc2)[C@H]2C1=CC[C@H]1C(=O)N(CC(=O)OC)C(=O)[C@H]12	1&-7	1%	-7%	-1.5%
CC(C)CNS(=O)(=O)c1cc(C(=O)N2CC(C)OC(C)C2)c(Cl)cc1Cl (stereo unspecified)	-1	-5%	-17%	2.2%
COc1cc2c(cc1OC)CN(CC(=O)Nc1ccc(C)cc1)CC2	-4	-12%	-7%	0.3%
O=C(NC(=S)Nn1cnnc1)c1cccc(Br)c1	11	1%	16%	-0.6%
CC1C(=O)Nc2ccccc2N1C(=O)c1ccc(F)cc1F (stereo unspecified)	.	1%	5%	-0.9%
CCOC(=O)CNC(=O)CSc1nc2sc(C)c(C)c2c(=O)n1C	2	-1%	9%	-0.2%
CCn1cc(C(=O)NCC2COc3ccccc3O2)c2cc(OC)c(OC)cc2c1=O (stereo unspecified)	-5	9%	-3%	-3.1%
COc1ccc(CNCCCNCc2ccc(OC)c(OC)c2)cc1OC	.	.	-9%	3.1%
O=C(NCc1cccnc1)C(=O)Nc1nc2ccccc2s1	4	-6%	11%	-1.3%
COc1ccc2ccccc2c1/C=N/n1cnnc1	.	1%	-25%	-0.4%
COc1cccc(CN(C)CC(O)COC(c2ccccc2)c2ccccc2C)c1 (stereo unspecified)	.	27%	7%	2.2%
CC(=O)NCCN1C(=O)C2C3c4ccccc4C(c4ccccc43)C2C1=O (stereo unspecified)	-2	6%	-7%	-3.9%

One compound at a time, from the list above. Values in the order: GLA inh pH 4.5 | miR-21 FLuc | Rango release inh | Rango complex inh
CC(C)c1nc(CNC(=O)c2ccc(OC3CCN(Cc4ccccn4)CC3)cc2)cs1 reads . | 11% | 13% | -1.7%
Cc1nn(C)cc1-c1n[nH]c(=S)n1-c1ccc(F)cc1 reads 1 | 1% | 7% | 1.2%

The listing continues:
SMILES	GLA inh pH 4.5	miR-21 FLuc	Rango release inh	Rango complex inh
COc1cc(NC(=O)c2ccccc2-c2ccccc2)cc(OC)c1	0	0%	-4%	0.1%
C[C@@H]1NC(=O)/C(=C\c2ccccc2Cl)NC1=O	2	-2%	-2%	-0.2%
O=C(OCC(=O)N1CCN(C(=O)c2ccco2)CC1)c1ccc(Cl)nc1	.	.	30%	2.7%
O=C(NCCNC(=O)c1ccccc1Br)c1cccnc1	.	0%	-7%	0.0%
Cc1ccccc1NC(=O)c1ccc(C)c(S(=O)(=O)NCc2cccnc2)c1	.	0%	-19%	-0.3%
O=C(Nc1nnc(-c2ccccc2F)s1)Nc1ccccc1F	-2	-21%	0%	-0.1%
Cc1cc(C)c2nc(SCC(=O)Nc3ccc(S(=O)(=O)N4CCCC4)cc3)c(C)cc2c1	5	-10%	-2%	-2.0%
CCOC(=O)c1c(-c2cccs2)csc1NC(=O)CNCCN1CCOCC1	1	-12%	.	.
Cc1cc(C(=O)Nc2cc(C(C)(C)C)on2)c(C)o1	-2	-58%	-2%	-0.9%
CCN(C(=O)COC(=O)c1nc(Cl)ccc1Cl)c1c(N)n(Cc2ccccc2)c(=O)[nH]c1=O	.	.	-1%	4.4%
Cc1cccc(C(=O)Nc2cc(=O)n(C)c(=O)n2C)c1	8	-9%	4%	0.0%
O=C(C1CCC(=O)N(C2CCCC2)C1)N1CCN(c2ccccc2Cl)CC1 (stereo unspecified)	.	-7%	?	-2.0%
CCOC(=O)C1CCCN(Cc2cc(=O)oc3cc(C)ccc23)C1 (stereo unspecified)	10	-48%	2%	-0.5%
COc1ccc(OCC(=O)Nc2ccc3c(c2)n(C)c(=O)n3C)cc1	.	-1%	17%	2.2%
CC(C)OCCCNc1nc2c(cnn2C)c(=O)[nH]1	.	.	-4%	0.5%
NC(=O)c1nsc(C(=O)N(Cc2ccccc2F)C(C(=O)NCC2CCCO2)c2ccc(F)cc2)c1N (stereo unspecified)	.	1%	-1%	-4.2%
Nc1ccccc1C#CC(=O)c1ccccc1	.	?	-23%	1.1%
O=C(/C=C/c1ccco1)Nc1sc2c(c1C(=O)O)CCC2	-9	5%	2%	2.2%
CCOC(=O)c1[nH]c2cc(OC)c(OC)cc2c1NC(=O)c1ccc2c(c1)OCO2	2	0%	8%	?
CCOC(=O)c1ccc(-c2c(C(=O)OCC)oc3cc(O)c(CC)cc3c2=O)o1	-6	-6%	-2%	-2.8%

Part of the list above with just GLA inh pH 4.5, Rango complex inh and miR-21 FLuc.
smiles	GLA inh pH 4.5	Rango complex inh	miR-21 FLuc
Nc1ccccc1C#CC(=O)c1ccccc1	.	1.1%	?
O=C(/C=C/c1ccco1)Nc1sc2c(c1C(=O)O)CCC2	-9	2.2%	5%
CCOC(=O)c1[nH]c2cc(OC)c(OC)cc2c1NC(=O)c1ccc2c(c1)OCO2	2	?	0%
CCOC(=O)c1ccc(-c2c(C(=O)OCC)oc3cc(O)c(CC)cc3c2=O)o1	-6	-2.8%	-6%

The listing continues:
SMILES	GLA inh pH 4.5	miR-21 FLuc	Rango release inh	Rango complex inh
CCN(Cc1ccccc1)S(=O)(=O)c1csc(C(N)=O)c1	.	-4%	-3%	-3.6%
O=C(O)c1cc(-c2cc3ccccc3o2)nn1-c1ccccc1	-7	-16%	-20%	-0.2%
CN1CCCN(C(=O)/C=C/c2ccc(Cl)cc2Cl)CC1	-2	-17%	-17%	-4.2%
COc1ccccc1Nc1nc(N)nc(CSc2nnc(C)s2)n1	10	-18%	4%	0.6%
CCOC(=O)C1=CC[C@@H](c2ccco2)N(S(=O)(=O)c2ccc(C)cc2)[C@H]1C(=O)OCC	.	.	-1%	-2.1%
CN(Cc1ccccc1)S(=O)(=O)c1ccc(Cl)c(C(=O)OCC(=O)NC2CCS(=O)(=O)C2)c1 (stereo unspecified)	.	.	5%	3.9%
CC(C)(C)OC(=O)N1CCC(C(=O)Nc2cccc(C(=O)NCc3ccccc3)c2)CC1	.	.	4%	-1.8%
O=C(NCc1nc2ccccc2[nH]1)C1=C[C@@H](c2ccc(Br)cc2)C[C@@H](OCc2ccc(CO)cc2)O1	-13	27%	-12%	0.9%
Cc1sc(C(C2C(=O)CC(C)(C)CC2=O)C2C(=O)CC(C)(C)CC2=O)cc1[N+](=O)[O-]	-5	-1%	0%	2.3%
CCCCc1c(C)nc2ccc(Br)cc2c1SCCC#N	-3	20%	.	.
O=C(Nc1ccn(Cc2ccccc2)n1)c1cccc(F)c1	3	-24%	0%	-4.5%
COc1cc2ccccc2cc1-c1nnc(COc2ccccc2)o1	-2	2%	2%	-1.5%
CCCCN1CCC(=O)NC1=O	.	.	5%	-3.1%
CSc1nc2nc3c(cc2c(=O)n1-c1cccc(C)c1)COC(C)(C)C3	4	2%	20%	-0.1%
CCN(CC)CC(=O)N1c2ccccc2Oc2c(c(=O)n(C)c(=O)n2C)C1c1cccc([N+](=O)[O-])c1 (stereo unspecified)	8	8%	-9%	-3.4%
Cc1cc(C)c(C(=O)COC(=O)Cn2cnnn2)cc1C	-2	-1%	-1%	?
CC(=O)Nc1cc(NC(C)=O)c2nc(N)sc2c1	-4	5%	6%	1.7%
COc1ccc(C(=O)COc2cccc(NC(=O)c3ccco3)c2)cc1	3	-8%	3%	5.4%
CCOC(=O)C1=NOC(C(=O)NN(C)c2ncc(C(F)(F)F)cc2Cl)C1 (stereo unspecified)	3	0%	-12%	2.7%
CC1(OC(=O)CCc2ccccc2)C(=O)C=C2C=C(c3ccc(C#N)cc3)N(C3CC3)C=C2C1=O (stereo unspecified)	14&-7	0%	-21%	?
CCN(CC)C(=O)c1ccccc1NC(=O)c1ccccc1SC	-1	-1%	-7%	0.3%
O=C(NCCOCC(F)(F)C(F)F)c1cc(F)c(F)cc1Cl	2	-17%	10%	-0.3%
O=C(O)c1ccccc1/C=N/NC(=O)c1cc(-c2ccco2)nc2ccccc12	5	8%	-12%	-2.7%
CCCC(c1nnnn1CS(=O)(=O)c1ccc(C)cc1)N1CCN(C2CCCC2)CC1 (stereo unspecified)	.	-1%	1%	2.0%
CCOC(=O)[C@@H]1[C@H]2COc3ccc(Br)cc3[C@@H]2N2C(=O)N(c3cccc(Cl)c3)C(=O)[C@]12C	.	.	3%	0.4%
Cn1c(=O)c2[nH]c(COc3ccccc3)nc2n(C)c1=O	.	.	29%	6.9%
CC(C)C(OC(=O)/C=C/c1ccc2c(c1)OCO2)C(=O)NC(N)=O (stereo unspecified)	7	-2%	-2%	2.4%
O=C(CNCC1CCCCC1)Nc1ccccc1N1CCCCC1	-10	2%	3%	-1.6%
CCc1ccccc1NC(=O)c1cc(-c2ccc(OC)cc2)on1	.	-1%&0%	-2%	-0.5%
COc1ccc(C(=O)NCC2COc3ccccc3O2)cc1S(=O)(=O)N1CCOCC1 (stereo unspecified)	.	.	-3%	-0.6%
COc1ccc(-c2cc(OC)c3ccccc3n2)cc1	-19	-30%	-20%	1.0%
CCOC(=O)C1(CCOc2ccccc2)CCN(Cc2cc(OC)c3c(c2)OCO3)CC1	-2	11%	-18%	3.2%
C/C(=N/NC(=O)c1cc(C2CC2)[nH]n1)c1cccs1	6	8%	-18%	-3.0%
COc1cc(/C=N/NC(=O)C(Cc2c[nH]c3ccccc23)NC(=O)OCc2ccccc2)cc([N+](=O)[O-])c1O (stereo unspecified)	2	-16%	-18%	?
CN(C)CCCn1c(SCC(=O)Nc2nc(-c3cccc(Br)c3)cs2)nc2ccccc2c1=O	-6	-17%	-5%	1.0%
Cc1ccc(C(=O)C(C)OC(=O)Cn2[nH]c(=O)c3ccccc3c2=O)cc1C (stereo unspecified)	.	-7%	29%	11%
CCOC(=O)/C=C/c1ccc2c(c1)S(=O)(=O)N(Cc1ccc(OC)cc1)[C@H]2CC(=O)OCC	.	.	0%	-2.4%
COC(=O)c1ccc(COc2cc([N+](=O)[O-])cc3cccnc23)o1	1	3%	18%	-0.4%
Cc1ccc2c(c1)N(CC(=O)NCc1ccco1)C(=O)CO2	-23	-8%	-1%	1.0%
O=C(COC(=O)Cn1ccc(=O)[nH]c1=O)Nc1ccc(F)cc1	.	.	18%	2.7%
O=C(O)c1ccccc1N1C(=O)c2cccc3cccc(c23)C1=O	.	1%	-7%	-1.6%
CCCn1c(CN2CCN(C(=O)c3ccco3)CC2)nc2c1c(=O)n(C)c(=O)n2C	5	-12%	-2%	0.2%
